# YopH inh – inhibitors of Yersinia enterocolitica YopH tyrosine phosphatase | fluorescence Ex485/Em525 | inhibition, %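 (about 10 µM by stock and volumes)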 | 0.16% of 140,000 active;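 active = inhibition of 50% or more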;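 note: controls were vehicle for no effect and minimum signal wells for full effect; inactives centre near -20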
# Arbovirus inh – arbovirus infection inhibition; inhibition, % at 10 µM; 0.37% of 200,000 active; AID 1251; arbovirus infection cell-based antiviral screen;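 active = inhibition from about 30%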;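 note: bluetongue infection of BSR cells; cell survival read as ATP light after 72 h; 0% = infected wells without compound and 100% = uninfected wells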
# Mtb betalactam – beta-lactam sensitization of Mtb H37Rv; M. tuberculosis H37Rv growth with meropenem, percent inhibition; hits of this screen are not shown here; inhibition, % at 25 µM; 0.27% of 330,000 active;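 active = about 74% or more and at least 40 points above the plate without the antibiotic, then above 30% in a dose series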;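 note: growth measured after seven days incubation then overnight dye step; 0% = bacteria only wells and 100% = bacteria with antibiotic; twin plates without the antibiotic show which effects depend on it; some results filed as inactive read as strong as hits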
# RecA splice inh – blocks M. tuberculosis RecA intein splicing | cell-free RecA intein splicing, fluorescence | P9WHJ3 | inhibition, %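 (about 9 µM by stock and volumes)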 | AID 2221 | 0.75% of 290,000 active; in the data active = inhibition above about 30%;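 note: 0% = vehicle wells and 100% = reference inhibitor control wells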
# Target sequence (P9WHJ3 whole entry, looked up, canonical isoform): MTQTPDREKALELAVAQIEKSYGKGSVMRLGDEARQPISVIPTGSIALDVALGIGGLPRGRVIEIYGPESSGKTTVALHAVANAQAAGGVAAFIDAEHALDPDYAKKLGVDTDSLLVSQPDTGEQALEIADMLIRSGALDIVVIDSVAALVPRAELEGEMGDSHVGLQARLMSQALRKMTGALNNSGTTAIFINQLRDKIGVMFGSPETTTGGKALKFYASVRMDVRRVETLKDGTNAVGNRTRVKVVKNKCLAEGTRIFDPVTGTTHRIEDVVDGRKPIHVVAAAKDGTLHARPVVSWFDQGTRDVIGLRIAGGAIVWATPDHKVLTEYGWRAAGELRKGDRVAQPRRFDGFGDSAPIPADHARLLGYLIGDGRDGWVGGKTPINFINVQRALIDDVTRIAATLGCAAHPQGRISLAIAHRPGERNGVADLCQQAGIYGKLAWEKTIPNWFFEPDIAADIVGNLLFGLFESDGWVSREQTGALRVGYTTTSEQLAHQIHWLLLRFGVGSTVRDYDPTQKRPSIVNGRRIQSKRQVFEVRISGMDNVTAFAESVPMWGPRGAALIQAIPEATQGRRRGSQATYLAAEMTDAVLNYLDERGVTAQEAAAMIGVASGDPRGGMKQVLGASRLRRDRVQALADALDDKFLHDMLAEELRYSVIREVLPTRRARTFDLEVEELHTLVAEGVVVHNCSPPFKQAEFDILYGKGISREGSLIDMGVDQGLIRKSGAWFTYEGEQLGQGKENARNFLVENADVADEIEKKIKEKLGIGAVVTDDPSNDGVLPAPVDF
# Mtb H37Rv – M. tuberculosis H37Rv growth inhibitors, H37Rv strain (AID 1626). 0.95% of 220,000 active. inhibition, % at 10 µM, or IC50 in µM where a hit was titrated. M. tuberculosis H37Rv growth inhibition; higher % means a stronger effect;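 active = confirmed in a dose series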;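 note: bacteria incubated seven days before Alamar blue readout; 0% = bacteria only wells and 100% = bacteria with antibiotic wells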
# Arbovirus inh repeat – recorded beside Arbovirus inh, whose call it bears; inhibition, %; measured here: 10K subset replicate screen; many hits read low in the repeat;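 first of two repeat runs on a subset; 0% = infected and 100% = uninfected wells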
# * = called active by the depositor; nt = no result given; & = joins results of further samples. These rows are one share of the data. The share of hits here may be higher or lower than overall.
SMILES,YopH inh,Arbovirus inh,Mtb betalactam,RecA splice inh,Mtb H37Rv,others
Cc1cccc(OCC(=O)Nc2ccc(N3CCN(S(C)(=O)=O)CC3)cc2)c1C,-35,-13,-5,-2.4,-2%,
Cc1ncsc1CCOC(=O)c1cccc([N+](=O)[O-])c1,-17,5,-13&-2,-0.8,0%,
COc1ccccc1N1CC(C(=O)Nc2nnc(SCC(=O)N3CCOCC3)s2)CC1=O (centres undefined),nt,nt,-6,-0.9,nt,
Cc1cc(C(=O)N/N=C/c2ccc3c(c2)OCO3)c2ccccc2n1,nt,nt,-11,-1.2,nt,
Cc1cc(CNC(=O)COc2ccc(C)c(C)c2)c2ccccc2n1,nt,10,-4,-1.9,-10%,
COc1cc2c(cc1OC)C(CCc1ccccc1)=NCC2,nt,nt,-12,-42,-2%,
Cc1ccc(CSCCNC(=O)CN2C(=O)c3ccccc3S2(=O)=O)cc1,56*,3,5,1.5,-8%,
COc1ccccc1Cn1c(=O)c2ccccc2n2c(SCc3csc(C)n3)nnc12,-5,-3,5,2.4,7%,
O=C(CNC(=O)C1CCCCC1)NC1=NCCS1,-33,0,-3,1.1,-4%,
N#Cc1cccnc1N1CCN(C(=O)c2cccs2)CC1,nt,nt,0,-3.7,nt,
O=C(NNS(=O)(=O)c1ccccc1F)c1cc(-c2ccccc2)n[nH]1,nt,nt,-7,5.8,-15%,
CC(C)CN(CC(C)C)C1=N/C(=C\c2ccco2)C(=O)N1c1ccccc1,-13,-2,-13,3.4,-4%,
O=c1cc(-c2ccccc2)nc2nc(-c3ccccc3)[nH]n12,-41,-7,83,-2.9,8%,
O=C(Nc1ccc(Cl)cc1C(F)(F)F)c1ccccc1Cl,-18,3,12,-1.0,6%,
O=C(NCCS(=O)(=O)NCCc1ccccc1)c1ccc2c(c1)OCO2,nt,nt,0,-1.0,nt,

# 5 structures from above, ordered by formula weight, ascending.
SMILES,YopH inh,Arbovirus inh,Mtb betalactam,RecA splice inh,Mtb H37Rv,others
O=c1cc(-c2ccccc2)nc2nc(-c3ccccc3)[nH]n12,-41,-7,83,-2.9,8%,
N#Cc1cccnc1N1CCN(C(=O)c2cccs2)CC1,nt,nt,0,-3.7,nt,
CC(C)CN(CC(C)C)C1=N/C(=C\c2ccco2)C(=O)N1c1ccccc1,-13,-2,-13,3.4,-4%,
COc1ccccc1Cn1c(=O)c2ccccc2n2c(SCc3csc(C)n3)nnc12,-5,-3,5,2.4,7%,
COc1ccccc1N1CC(C(=O)Nc2nnc(SCC(=O)N3CCOCC3)s2)CC1=O (centres undefined),nt,nt,-6,-0.9,nt,

# (cont.)
SMILES,YopH inh,Arbovirus inh,Mtb betalactam,RecA splice inh,Mtb H37Rv,others
COc1ccccc1Oc1ccc2c(c1)C(=O)N(CC1CCCO1)C2=O (centres undefined),nt,nt,-3,nt,-15%,
COCCOc1ccc(C(F)(F)F)cc1NC(=O)CN1C(=O)NC2(CCc3ccccc32)C1=O (centres undefined),nt,nt,1,-3.1,nt,
CSc1nc(N(C)NC(=O)c2ccc(F)cc2)c2ccccc2n1,-36,-10,-6,-1.3,-5%,
CC(C)Cc1n[nH]c(=O)[nH]1,11,2,-4,-0.3,-6%,
COc1ccc(CCNC(=O)CN(c2ccc(OC)c(OC)c2)S(=O)(=O)c2ccc(C)cc2)cc1,nt,nt,-6,-0.5,nt,
Cn1nc(C(F)(F)F)c(C(=O)Nc2ccc(F)cc2F)c1Oc1cccc(Cl)c1,-26,-1,-2,nt,10%,
Cc1csc(NC(=O)CSc2ccc(-c3ccc(F)cc3)nn2)n1,nt,-8,82,-0.7,76%,
CCn1c(CNc2ccc(F)cc2)nnc1SCC(=O)Nc1ccc(OC)cc1OC,-40,-3,4,2.3,-15%,
COC(=O)c1c(NC(=O)Cc2ccccc2)sc2c1CCN(C(C)C)C2,nt,nt,-6,-0.8,nt,
CN(C)c1nc2c(c(=O)[nH]c(=O)n2C)n1Cc1ccc(F)cc1,-16,0,-7,0.3,0%,Arbovirus inh repeat=6
Cc1ccc2cc(C(c3nnnn3CC3CCCO3)N3CCc4ccccc4C3)c(=O)[nH]c2c1 (centres undefined),16,7,5,-4.0,4%,
CC(=O)OC(COC1C[C@@H]2CC[C@@]1(C)C2(C)C)C[N+]1(C)CCCCC1 (some centres undefined),nt,nt,3,-0.4,-5%,
CNC[C@H](CC1CCCCC1)NC[C@H](CO)NCCc1cccc(C(F)(F)F)c1,nt,nt,99,1.0,nt,
Cn1ccc(O)c(C#N)c1=O,nt,-1,-4,-0.6,-5%,
CCOC(=O)C1(CCOc2ccccc2)CCN(CC(O)CO)CC1 (centres undefined),nt,nt,-1,3.6,nt,
COC(=O)c1cc(NC(=O)Cn2nc(C)n3cccc3c2=O)cc(C(=O)OC)c1,nt,nt,0,0.8,nt,
Cc1ccccc1OCC(=O)Nc1ccccc1N1CCOCC1,-16,-3,nt,4.6,2%,Arbovirus inh repeat=1
COc1cc(OC)cc(C(=O)N[C@H](C(=O)NCCc2c[nH]c3ccccc23)C(C)C)c1,nt,-14,-3,-1.1,19%,
CC(C)(C)n1nnnc1C(c1ccncc1)N1CCN(c2ccc(O)cc2)CC1 (centres undefined),-27,9,-2,-3.7,-4%,
Cc1ccc(S(=O)(=O)Nc2ccc(O)c3ccccc23)c(C)c1,nt,nt,4,97*,nt,
CC(=O)NCCC(=O)Nc1cc(S(=O)(=O)N2CCOCC2)ccc1Oc1ccccc1,nt,nt,2,2.8,nt,
CN(CCC1CCOCC1)Cc1nc(Cc2ccccc2F)no1,nt,-2,-3,-3.5,-2%,
C/C(CC(=O)Nc1ccc(Cl)c(C(F)(F)F)c1)=N\NC(=O)c1cnccn1,nt,nt,4,0.6,nt,
COc1ccc(OC)c(NC(=O)CSc2nnnn2-c2ccc3c(c2)OCO3)c1,-31,-8,8,0.3,-8%,
NC(=O)C1CC(=O)N(c2ccc(OCc3c(F)cccc3Cl)cc2)C1 (centres undefined),nt,-1,-1,-1.2,0%,
CN1CCN(c2c(N)c(=O)oc3ccccc23)CC1,5,7,2,0.5,-5%,
CC(C)C(C(=O)Nc1ccc(N2CCOCC2)cc1)N1C(=O)c2ccccc2C1=O (centres undefined),-36,0,3,0.7,-1%,
COc1cccc(/C=C2\SC(=S)N(CCC(=O)NC3C=CS(=O)(=O)C3)C2=O)c1 (centres undefined),nt,nt,1,6.9,nt,
Cn1cc(S(=O)(=O)Oc2ccccc2)c(=O)n(C)c1=O,nt,0,-7,1.3,-3%,
O=C(/C=C/c1ccc(Cl)cc1)NC(=S)Nc1ccc(NC(=O)c2ccco2)cc1,-27,-31,7,-0.2,10%,
COCc1nnc(NC(=O)c2ccc(S(=O)(=O)N3CCCCCC3)cc2)o1,-41,-11,-1,-0.9,-7%,
O=C(/C=C/c1ccccc1)N1CCC[C@H]1CO,-38,-3,-5,-0.5,2%,
Cc1ccc(Cl)cc1N1CCN(C(c2cccnc2)c2nnnn2C2CCCCC2)CC1 (centres undefined),-6,-31,9,nt,52%,
CCOC(=O)C1=C(C)Nc2nc3ccccc3n2C1c1ccncc1 (centres undefined),-62,-14,1,6.0,4%,
COc1cccc(NC(=O)[C@@H](NC(=O)N2CCn3c2nc2ccccc23)C(C)C)c1,nt,nt,-5,1.7,nt,
Cc1nn(CC(=O)NC(C)CCc2ccccc2)c(=O)c2nn(-c3ccccc3)c(C)c12 (centres undefined),nt,nt,-2,3.1,nt,
COc1ccc(C(=O)NC2CC3CCCC(C2)N3Cc2ccccc2)cc1OC (centres undefined),nt,nt,-7,-1.8,nt,
O=C1NC(=O)C(CC(=O)N(Cc2cccs2)C2(C(=O)NC3CCCCC3)CCCCC2)N1 (centres undefined),-31,4,-6,-1.8,-15%,
Cc1ccc(S(=O)(=O)Cn2nnnc2C(C(C)C)N2CCc3ccccc3C2)cc1 (centres undefined),18,-2,-1,3.9,-2%,
O=C(CN1C(=O)NC(Cc2ccccc2)C1=O)NC(=O)NC1CCCCC1 (centres undefined),-14,9,1,-0.7,-10%,
CC(C)Oc1ccc(C(=O)Nc2ccc(C(F)(F)F)n(C)c2=O)cc1,-35,6,7,4.5,9%,
COc1cc(OC)cc(C(=O)N2CCN(C(=O)c3cccs3)CC2)c1,nt,nt,-10,-1.1,nt,
COc1cccc(Cn2cnc3c(sc4nc(C)cc(C)c43)c2=O)c1,nt,nt,2,-4.0,nt,
CCC(C)N1Cc2ccccc2C1=N (centres undefined),3,9,4,nt,-2%,
O=C(Nc1ccc(Cl)cc1)N(Cc1nnc2n1CCCCC2)c1ccccc1,-49,6,8,0.2,-2%,

# Four records drawn at random from those above, as already listed:
SMILES,YopH inh,Arbovirus inh,Mtb betalactam,RecA splice inh,Mtb H37Rv,others
O=C(NCCS(=O)(=O)NCCc1ccccc1)c1ccc2c(c1)OCO2,nt,nt,0,-1.0,nt,
CN(CCC1CCOCC1)Cc1nc(Cc2ccccc2F)no1,nt,-2,-3,-3.5,-2%,
O=C(Nc1ccc(Cl)cc1)N(Cc1nnc2n1CCCCC2)c1ccccc1,-49,6,8,0.2,-2%,
COc1cc(OC)cc(C(=O)N2CCN(C(=O)c3cccs3)CC2)c1,nt,nt,-10,-1.1,nt,

# Going on with the list:
SMILES,YopH inh,Arbovirus inh,Mtb betalactam,RecA splice inh,Mtb H37Rv,others
Cc1cc(C)c(C#N)c(N2CCN(S(=O)(=O)Cc3ccccc3)CC2)n1,nt,nt,-15,-1.6,nt,
C=CCn1c(SCc2ccc(C(=O)NCCO)cc2)nc2sc(C)c(C)c2c1=O,nt,-5,29,0.3,10%,
CCN(CCNC(=O)Cn1cc2c(n1)CCCC2)c1ccccc1,-29,-6,-1,2.4,-6%,Arbovirus inh repeat=-12
COc1ccc(C2CC3(CC(C)(C)NC(SC)=N3)Oc3cc(O)cc(C)c32)cc1 (centres undefined),-30,-32,0,2.8,11%,
CCOC(=O)C1=NNC(C(=O)c2ccc(C)cc2)C1c1ccc(OC)cc1 (centres undefined),-11,1,7,-2.7,-6%,
CCN1C(=O)CC(N2CCC(Cc3ccccc3)CC2)C1=O (centres undefined),-30,2,1,1.6,-4%,
COc1cccc(CC(=O)NCC2(N3CCCCC3)CCCCC2)c1,nt,8,3,2.3,-5%,
COC(=O)CCC(=O)N(CCN(Cc1ccccc1)C(=O)CCC(=O)OC)Cc1ccccc1,nt,nt,-10,1.6,nt,
O=C(NCc1ccc2c(c1)OCO2)c1cccc(N2CCCC2=O)c1,-3,-4,2,0.2,-10%,
COc1ccc(-c2noc(C3CCCN(C(=O)c4ccccc4OC)C3)n2)cc1OC (centres undefined),-35,1,7,1.0,-9%,
O=C(Nc1ccc(S(=O)(=O)N2CCCC2)cc1)c1c(F)cccc1F,nt,nt,-11,3.3,nt,
O=C(NCc1ccncc1)c1cc(F)c(F)cc1Cl,nt,4,-7,-0.6,-6%,
Cc1c(C=O)c(Cl)n(C)c(=O)c1C#N,nt,7,-1,-4.7,4%,
O=C(Nc1cccc(N2C(=O)C3CCCCC3C2=O)c1)c1ccccc1 (centres undefined),nt,nt,0,-2.5,nt,
COc1ccc(-n2nc3c(c2NC(=O)C(C)C)CSC3)cc1,nt,nt,2,1.4,nt,
CC(C)(C)C(=O)N1CCC(O)(CS(=O)(=O)Cc2ccccc2Cl)CC1,-20,12,2,0.5,23%,
CCOc1ccc(CN2CCN(CC3CC3)CC2CCO)cc1 (centres undefined),nt,nt,2,1.2,nt,
O=c1oc2ccccc2n1Cc1cccc(Cl)c1,nt,nt,-11,-0.4,-8%,
O=C(c1ccc(Cl)c(S(=O)(=O)N2CCCC2)c1)N1CCCC(C(F)(F)F)C1 (centres undefined),nt,nt,-8,0.6,nt,
CCC(C)NC(=O)/C(=C/c1ccco1)c1ccccc1 (centres undefined),10,7,-5,-0.1,1%,
O=C(OCC(=O)N1CCCC1=O)c1nc(Cl)ccc1Cl,nt,nt,6,-1.6,nt,
O=C1CCCN1CCC1CCN(C2CC(=O)N(c3ccc(Cl)cc3)C2=O)CC1 (centres undefined),35,-5,-2,6.3,-6%,
CN1CCN(NC(=O)C2CC2)CC1,1,-5,-3,2.0,8%,
CC(C)(C)c1ccc(O)c(N)c1,-18,0,-2,-0.8,-9%,
O=C(NC1CCSC1=O)c1cccc(C(=O)NC2CCSC2=O)c1 (centres undefined),-2,8,-6,-2.0,2%,
COc1ccc(CN2C3CCCC2CC(NC(=O)c2cccc(F)c2)C3)cc1 (centres undefined),nt,nt,-20,1.3,nt,
Cc1ccc(C(=O)n2ncn(C)c2=S)cc1,nt,7,nt,1.5,3%,
CCN(CC)CCNCc1ccc(OCc2ccc(Cl)nc2)c(OC)c1,-45,-6,-6,-1.4,-5%,
COP(=O)(OC)C(Nc1ccc(C)cc1)c1ccc([N+](=O)[O-])cc1 (centres undefined),46,4,2,-0.9,-6%,
O=C(NCc1ccccn1)c1cccc(S(=O)(=O)NCc2ccccc2)c1,nt,nt,-3,-1.5,nt,
CN(C)c1ccc(/C=N/N(CCC#N)C2=NS(=O)(=O)c3ccccc32)cc1,nt,nt,-2,-9.5,nt,
CCOC(=O)c1c(OCCO)nn(-c2ccccc2)c1N,nt,2,1,0.0,8%,

# Screening results from PubChem.
